BasE inh: BasE siderophore enzyme inhibitors, primary screen, biochemical, Acinetobacter baumannii ATCC 17978, fluorescence polarization. inhibition, % (concentration not given with the values). purified BasE, fluorescence polarization binding displacement. 84,000 tested, 0.1% active;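 active = both replicates above 25% with normal brightness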;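 also: 0% = negative plate control signal and 100% = positive plate control signal; stock transfer was 100 nL into about 30 µL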
LANA-nucl inh: inhibitors of KSHV LANA-nucleosome binding, primary screen, biochemical, fluorescence polarization, FITC-LANA1-23, chicken nucleosomes; FITC-LANA1-23 / chicken nucleosome fluorescence polarization; active compounds read low; z-score (concentration not given with the values); 51,000 tested, 0.3% active; AID 720717, 2013;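 active = both repeat wells score below -2 in polarization z-score versus plate sample wells, excluding overly bright wells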;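 also: 100 nL library stock added to about 30 µL; numbers are from one replicate; some results filed as inactive read as strong as hits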
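Assay system: FITC-LANA peptide and chicken nucleosomes; input: 240 nM purified chicken nucleosomes (480 nM peptide binding sites), final; also added: 50 nM FITC-LANA1-23 probe; medium: TEN-BT buffer, pH 7.5; doses: pin-transferred compound, 100 nL; times: 10–45 min, room temperature; technique: fluorescence polarization; replication: duplicates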
* hit, by the source's call; nt = not tested or not shown; & = joins results of further samples. Only part of the results is shown. The share of hits here may be higher or lower than overall.

Results follow in this order: BasE inh | LANA-nucl inh
COc1cccc(Nc2ncc3c(n2)CCNC3)c1
    -2.0 | -0.573
CCOC(=O)c1ccc(NC(=O)CC#N)cc1
    -1.8 | nt
CN(CC(=O)N1CCCC1c1nc2ccccc2s1)S(=O)(=O)c1ccc(Cl)s1 (stereo unspecified)
    0.2 | nt
CCn1nc(C)c(Br)c1-c1nc(-c2cccc(C(F)(F)F)c2)no1
    -1.9 | 2.35
O=c1o[nH]c(-c2ccccc2)c1C=Nc1ccc(Cl)cc1
    nt | 2.66
Brc1ccc2nc(-c3ccco3)c(Nc3ccccc3)n2c1
    1.6 | -0.0615
COC(=O)Cn1c(C(F)(F)F)nc2ccccc21
    nt | -0.188
O=C(CC(C(=O)O)N1CCNCC1)Nc1ccccc1Cl (stereo unspecified)
    -0.5 | -0.437
CCC1=[N+]([O-])C(C)(C)C(c2ccccc2)=[N+]1[O-]
    0.3 | -1.95
COc1cccc(N2C(=O)CC(SCC(=O)Nc3ccc4ccccc4c3)C2=O)c1 (stereo unspecified)
    0.2 | nt
CC(C)C(C(=O)O)N1C(=O)/C(=C/c2ccccn2)SC1=S (stereo unspecified)
    5.4 | -0.629
Cc1cc(NC(=O)c2cc(-c3ccc(F)cc3)no2)nn1CC(=O)N1CCOCC1
    1.3 | -0.928
O=C1Nc2ccccc2/C1=C/c1ccc(CN2C(=O)c3ccccc3C2=O)o1
    2.0 | -0.786
CC(C)CSc1nnc(Cn2cnc3ccccc32)n1-c1ccccc1Cl
    1.2 | nt
Nc1cc(=O)[nH]c(SCC(=O)c2cccs2)n1
    -0.4 | nt
O=C(CSc1cccc[n+]1[O-])c1ccco1
    -1.1 | nt
O=C(O)/C=C/C(=O)NC1CCCCC1
    -0.3 | 1.14
CN(C)CC(O)COc1ccc2ccccc2c1 (stereo unspecified)
    -0.4 | -0.306
ClC(=NC1CC1)c1ccccc1
    0.9 | nt
NC(=O)c1cn(-c2ccccc2)nc1-c1ccccc1
    -0.2 | -0.0035
COc1cccc(C(=O)Cn2nc(-c3ccco3)ccc2=O)c1
    1.7 | -0.118
Cc1ccc2c(cnn2C(=O)CCCC(=O)N2CCN(C)CC2)c1
    -2.1 | 0.327
Cc1ccc(C(=O)N2CC(=O)Nc3ccccc32)cc1
    2.0 | nt
CCOc1ccc(-c2cc3nc(C4CCN(C(=O)OC(C)(C)C)CC4)c(C(=O)O)cn3n2)cc1
    -4.8 | 1.25
Cc1ccc(COC(=O)c2ccc(=O)[nH]n2)cc1
    0.3 | nt
O=C(NCc1nc(-c2ccccc2F)no1)C1CC1
    -0.8 | 0.543
COc1cccc(C(=O)Nc2nncs2)c1
    0.8 | 0.079
O=C(O)CSc1nnc2n1-c1ccc(Cl)cc1NN2
    27.7 | -5.56*
O=C(c1cc2ccccc2oc1=O)N1CCCCCC1
    -0.4 | 0.136
NC(=O)CNS(=O)(=O)c1ccc(Br)c(C(=O)O)c1
    0.0 | nt
CSc1nc2sc3c(c2c(=O)n1-c1cccc(Br)c1)CC(C)(C)OC3
    1.9 | nt
O=C1C2CCCN2C(=O)C2CCCN12 (stereo unspecified)
    3.3 | -0.335
NC(=O)c1cc[n+](CC(=O)N2CCOCC2)cc1
    0.0 | -0.291
CCc1ccc(-c2cc(C)no2)cc1S(=O)(=O)Nc1ccccc1
    0.9 | nt
CCOC(=O)c1[nH]c2ccc(C)cc2c1NC(=O)OC
    -1.8 | 0.912
Cc1csc(=O)n1CCC(=O)OCC(=O)Nc1ccccc1
    1.4 | nt
Cn1nnnc1SCC1=C(C(=O)O)N2C(=O)C(NC(=O)C(OC=O)c3ccccc3)C2SC1 (stereo unspecified)
    -0.2 | -0.319&0.603
CC(NC(=O)COc1ccc2ccccc2c1)C(=O)O (stereo unspecified)
    2.4 | -0.798
CN(C)CCSc1nnc(-c2ccccc2)o1
    -1.1 | 0.173
O=c1[nH]c(=O)n(Cc2c(Cl)cccc2Cl)cc1F
    1.5 | nt
COc1ccc(NC(=O)c2c[nH]c(=O)n(-c3ccccc3)c2=O)cc1
    1.5 | 1.2
CCN(Cc1ccccc1)c1ncnc2onc(-c3ccc(F)cc3)c12
    -5.1 | nt
C/C(=N\NC(=S)NC1CCCCC1)c1ccc(S(=O)(=O)NCc2ccco2)cc1
    -1.1 | nt
Cc1c(-c2cc(NC(=O)c3ccccc3)n[nH]2)sc2ccc(Cl)cc12
    1.4 | nt
Cc1nn(CC(C)C)c(Cl)c1C(=O)NCc1cccnc1
    -1.2 | nt
Cn1c(NC(=O)c2ccco2)c(-c2ccccc2)c(=O)c2ccccc21
    nt | 1.45
O=C(CNC(=O)c1sc2ccccc2c1Cl)Nc1ccc(-n2cnnn2)cc1
    -1.4 | nt
COC(=O)/C=C/c1cn(C2OCC(CO)C2O)c(=O)[nH]c1=O (stereo unspecified)
    -3.1 | nt
Cc1noc(C)c1COC(=O)/C=C/c1cn(-c2ccccc2)nc1-c1cc2ccccc2oc1=O
    0.3 | nt
COC(=O)c1ccc(S(=O)(=O)N(C)C)o1
    1.9 | -1.2
N#CC(C#N)=C(C#N)c1ccc(-c2ccccc2)[nH]1
    -2.5 | 0.241
C=CCn1nnnc1SCC(=O)Nc1cccc(C(F)(F)F)c1
    -0.8 | -0.415
Nc1cccc(OCCOCCOc2cccc(N)c2)c1
    -1.3 | nt
C/C(N)=C(/C#N)C(=O)CSc1nnc2c(Cl)cc(Cl)cn12
    0.4 | nt
O=C1CSc2ccc(C(=O)N3CCN(Cc4ccc5c(c4)OCO5)CC3)cc2N1
    1.0 | nt
O=C(Cc1cccc(C(F)(F)F)c1)NC1=NCCS1
    2.8 | nt
Cc1cc(N2CCOCC2)ccc1/C=C1\NC(=O)N(Cc2ccccc2)C1=O
    1.9 | nt
COc1ccc(Cn2c(SC)nc3ccccc32)cc1
    -0.6 | -1.43
COc1cc(NC(=O)c2nc3ncccn3n2)cc(OC)c1OC
    2.3 | -0.0765
S=C(SCc1nnc(-c2ccc(Cl)cc2)o1)N1CCCC1
    -1.3 | nt

More compounds:
Results follow in this order: BasE inh | LANA-nucl inh
CC1CCCC(C)N1C(=O)NC(=O)c1ccccc1 (stereo unspecified)
    -0.6 | nt
Cc1[nH]n(-c2ccccc2)c(=O)c1/C=C1\C=c2ccccc2=NC1=O
    1.9 | nt
O=C(/N=C1\N=C2N=CC=CN2Cc2ccccc21)Nc1ccc(Cl)cc1
    -0.8 | nt
CCN(CC)c1ccc2nnc(CCC(=O)NCC3CCN(Cc4ccc(C)cc4)C3)n2n1 (stereo unspecified)
    -2.8 | -0.437
O=C(COC(=O)CCc1c[nH]c(=O)[nH]1)Nc1cccc(Cl)c1
    0.1 | nt
O=C(O)CC(Cc1ccccc1)C(=O)O (stereo unspecified)
    -2.4 | 0.912
COC(=O)C(O)(CC(=O)O)C(F)(F)F (stereo unspecified)
    -0.9 | nt
CC(C)COc1ccc(C(=O)NN)cc1
    2.3 | nt
O=C(COC(=O)C1CCN(S(=O)(=O)c2cccs2)CC1)c1cc2ccccc2o1
    -8.9 | nt
O=C(O)c1ccc(N2CCCC2=O)cc1O
    3.2 | -2.39
Cc1ccc(-c2nn(CCC(=O)N3CCCC3)c(=O)c3ccccc23)cc1
    2.6 | nt
COc1ccc(NC(=O)[C@@H]2CCCN2S(=O)(=O)c2ccc(C)cc2)cc1
    -0.3 | nt
CC(OC(=O)C1CC1)C(=O)Nc1ccnn1C(C)C (stereo unspecified)
    1.4 | nt
CCNC(=O)C1CCN(c2ncnc3c2nc2n3CCCCC2)CC1
    -2.6 | 2.96
Cc1cc(C)cc(NC(=O)NC(C)(C)C)c1
    2.7 | -0.017

An excerpt from above in order of the LANA-nucl inh value, rising.
molecule	LANA-nucl inh
O=C(O)c1ccc(N2CCCC2=O)cc1O	-2.39
Cc1cc(C)cc(NC(=O)NC(C)(C)C)c1	-0.017
O=C(O)CC(Cc1ccccc1)C(=O)O (stereo unspecified)	0.912

(listing goes on)
Results follow in this order: BasE inh | LANA-nucl inh
Cn1c(=O)c2c(=S)nc(C3CC3)[nH]c2n(Cc2ccccc2)c1=O
    0.4 | nt
O=C1Nc2ccccc2C1Cc1ccc(N=Cc2cc(Cl)cc(Cl)c2O)cc1 (stereo unspecified)
    -0.8 | nt
CN(C(=O)NC(=O)C1=C(N2CCOCC2)/C(=C\c2ccccc2)CC1)S(C)(=O)=O
    1.6 | nt
CCn1c(=NC(=O)c2ccc(S(=O)(=O)N3CCOCC3)cc2)sc2ccccc21
    -0.5 | -0.172
CN(/N=C\C=C\c1ccccc1)c1ccccn1
    4.0 | 0.313
CCOC(=O)N1CCN(S(=O)(=O)c2ccc(-n3cnnn3)cc2)CC1
    0.7 | 0.503
CN(n1cnc2ccsc2c1=O)S(=O)(=O)c1cc(C(F)(F)F)cc(C(F)(F)F)c1
    0.2 | nt
CC(C)C(c1nnnn1Cc1ccccc1)N1CCCc2ccccc21 (stereo unspecified)
    -0.3 | -0.373
COc1ccccc1CN1CC(C(=O)NCC2CCCO2)CC1=O (stereo unspecified)
    0.4 | -0.903
CC(C)OC(=O)CCC/C=C\C[C@@H]1[C@@H](CC[C@@H](O)CCc2ccccc2)[C@H](O)C[C@@H]1O
    nt | -0.364&0.262
O=S(=O)(c1ccc(SC2Cc3ccccc3C2O)nc1)N1CCOCC1 (stereo unspecified)
    0.7 | nt
Cc1nccn1CCC1CCNCC1
    -1.4 | -0.4
Cc1c(NC(=O)NNc2ccccc2)sc2nc(-c3ccc(Cl)cc3)nn12
    -0.1 | -0.3
O=C1NC(=O)C(c2ccccc2)(c2ccccc2)N1
    -0.3&-0.7&-1.2 | -0.138&0.353&0.0855&0.942&0.585
C=CCn1c(SC(C)C#N)nnc1-c1ccc(Br)cc1 (stereo unspecified)
    1.7 | nt
CCc1cc(=O)oc2c(CN(C)C)c(O)c(Cl)cc12
    0.2 | -1.69
CC(Oc1ccccc1)c1nc(-c2cccnc2)no1 (stereo unspecified)
    -2.5 | 1.1
O=C(CN1CCN(CC(=O)Nc2ccccc2F)CC1)Nc1ccc(F)cc1
    -0.6 | 0.407
O=C(O)C1CCCCC1c1nc2ccccc2s1 (stereo unspecified)
    -2.8 | nt
CC(=O)N1CCc2cc(NC(=O)CC(=O)c3ccccc3)ccc21
    1.8 | nt
COc1ccc(C(CC(=O)c2cccs2)SCc2ccco2)cc1OC (stereo unspecified)
    0.5 | nt
Brc1ccc(-c2noc(-c3ccccc3)n2)o1
    3.1 | -0.608
COc1ccc(NS(=O)(=O)c2ccc3c4c(cccc24)C(=O)S3)cc1
    1.6 | nt
Cc1ccc(NC(=O)CSc2nc(C)cc(C)c2C#N)cc1
    1.6 | -0.232
CCOc1ccc(OCCCCn2ccnc2)cc1
    1.8 | -0.12
N#CCCN(Cc1ccccc1)C(=O)c1nccnc1C(=O)O
    2.9 | -0.184
N#CCCn1c(SCC(=O)Nc2cccc3ccccc23)nc2ccccc21
    -2.4 | nt
COc1ccc(CNC(=O)[C@@H]2CCCN2C(=O)OC(C)(C)C)cc1OC
    2.1 | nt
CCOC(=O)N1CCC(NC(=O)Nc2ccc3c(c2)CCO3)CC1
    0.8 | nt
CCC(C)(C(=O)NC1CCCC1)N(C(=O)CC1NC(=O)NC1=O)c1c(C)n(C)n(-c2ccccc2)c1=O (stereo unspecified)
    0.5 | 0.262

Seven structures already listed, sorted by formula weight, ascending:
Results follow in this order: BasE inh | LANA-nucl inh
O=C(O)C1CCCCC1c1nc2ccccc2s1 (stereo unspecified)
    -2.8 | nt
CC(Oc1ccccc1)c1nc(-c2cccnc2)no1 (stereo unspecified)
    -2.5 | 1.1
CCc1cc(=O)oc2c(CN(C)C)c(O)c(Cl)cc12
    0.2 | -1.69
CC(=O)N1CCc2cc(NC(=O)CC(=O)c3ccccc3)ccc21
    1.8 | nt
CCOC(=O)N1CCC(NC(=O)Nc2ccc3c(c2)CCO3)CC1
    0.8 | nt
COc1ccc(CNC(=O)[C@@H]2CCCN2C(=O)OC(C)(C)C)cc1OC
    2.1 | nt
O=C(CN1CCN(CC(=O)Nc2ccccc2F)CC1)Nc1ccc(F)cc1
    -0.6 | 0.407

(further entries)
Results follow in this order: BasE inh | LANA-nucl inh
COc1ccc(N2CCN(CCCNC(=O)NC3CC(=O)N(c4ccc5c(c4)OCCO5)C3)CC2)cc1 (stereo unspecified)
    0.0 | -0.0885
O=C(Nc1ccccc1)N(C1=NCCCCS1)c1ccccc1
    0.1 | -0.257
Cn1ncc(Cl)c1C(=O)NC(=S)Nc1sc2c(c1C#N)CCCC2
    -1.5 | 0.157
Cc1noc(C)c1CSc1nc(-c2cccs2)c(-c2cccs2)[nH]1
    -0.1 | nt
COC(=O)c1cnc(N2CCN(c3ccccc3)CC2)c2ccccc12
    2.5 | -0.524
Cc1cc(CNC(=O)c2cnc3ccccc3n2)c(C(F)(F)F)o1
    1.5 | nt
CCOC(=O)c1cc(C(=O)OCC)c(=S)[nH]c1O
    -0.2 | 0.942
COc1ccc(/C=C2\Cc3ccccc3C2=O)cc1
    1.2 | nt
CCC(SC1=Nc2ccccc2C2=NC(c3ccccc3)C(=O)N12)C(=O)NCc1ccco1 (stereo unspecified)
    1.5 | -0.281
COc1ccccc1Nc1nnc(-c2ccc(OC(C)C)c(OC)c2)o1
    4.2 | nt
COc1ccccc1NC(=O)C(C)NS(=O)(=O)c1ccccc1 (stereo unspecified)
    -0.6 | 0.411
CCN(CC)c1nc(-c2cccs2)c(C(=O)c2ccc(N3C(=O)CCC3=O)cc2)s1
    0.7 | nt
CC(C)(C)c1ccc(-c2cc3ncc(-c4ccccc4)c(N)n3n2)cc1
    2.3 | nt
O=C(CCCn1sc2ccccc2c1=O)NCCC1=CCCCC1
    -0.3 | -1.01
